From PubChem
TDP1 block – blocks human tyrosyl-DNA phosphodiesterase 1. Q9NUW8. recombinant TDP1, AlphaScreen DNA substrate cleavage. Potency, µM (doses to about 130 µM), for inactives: at the highest dose activity change, negative = inhibition, usual class: inhibitors. hit rate 0.28% among 350,000. AID 485290; further: nearly all actives have a fitted effect of over 40% in size
Target sequence (Q9NUW8 whole entry, looked up): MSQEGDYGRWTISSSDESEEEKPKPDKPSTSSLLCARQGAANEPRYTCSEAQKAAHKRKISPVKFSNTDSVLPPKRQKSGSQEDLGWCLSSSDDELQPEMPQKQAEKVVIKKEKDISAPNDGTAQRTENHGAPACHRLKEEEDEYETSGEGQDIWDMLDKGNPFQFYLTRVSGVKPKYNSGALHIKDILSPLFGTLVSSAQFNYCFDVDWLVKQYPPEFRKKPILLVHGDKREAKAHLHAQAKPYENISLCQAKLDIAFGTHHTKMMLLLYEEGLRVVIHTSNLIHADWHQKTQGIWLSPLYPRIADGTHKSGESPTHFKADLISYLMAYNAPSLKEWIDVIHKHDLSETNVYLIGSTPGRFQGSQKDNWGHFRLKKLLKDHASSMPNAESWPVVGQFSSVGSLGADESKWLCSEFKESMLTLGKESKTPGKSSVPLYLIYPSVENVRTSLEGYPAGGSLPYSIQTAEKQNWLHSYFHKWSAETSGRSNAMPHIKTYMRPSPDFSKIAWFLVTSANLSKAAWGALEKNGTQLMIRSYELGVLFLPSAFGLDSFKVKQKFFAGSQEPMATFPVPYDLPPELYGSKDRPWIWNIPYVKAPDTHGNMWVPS
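AlphaScreen read-out: signal falls as enzyme removes the 3' tyrosine-FITC from a 5'-biotinylated DNA oligo (15 nM, 5 min, RT). Enzyme was E. coli-made recombinant Tdp1 at 1 nM, exposed to compound for 15 min beforehand; beads 10 ug/ml, 10 min.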
TDP1 cell noCPT – qHTS for Inhibitors of human tyrosyl-DNA phosphodiesterase 1 (TDP1): qHTS in cells in absence of CPT; DT40 Tdp1-/- hTDP1 cells, no CPT, ATP luminescence, 48 h; Potency, µM (doses to about 46.2 µM), inactives show top-dose activity change, negative = growth inhibition, hits mostly inhibitors; hit rate 15% among 420,000; further: nearly all actives have a fitted effect of over 55% in size
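DT40 Tdp1-/-;hTDP1 cells, no CPT (DMSO vehicle only), 400 cells/well; compounds pin-transferred; ≥48 hr, 37 °C; CellTiter-Glo 30 min RT dark, luminescence read.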
* hit, by the source's call; ? = inconclusive; nt = not tested or not shown; & = joins results of further samples; [ ] = another dose, or the depositor's remark. The call rests on the fitted dose curve; in most records, active means well fitted curve in the direction sought with a large enough effect; inconclusive means small, poorly fitted or top-dose-only effect, or another doubt; inactive means no such curve, though single readings can be large; an effect the other way counts as inactive or inconclusive. On the % scale 0 is the no-effect control and ±100 the full control effect; potency means the concentration at half of the fitted maximal effect.

Value order – TDP1 block	TDP1 cell noCPT
Cc1ccc(-n2nnnc2SCC(=O)Nc2sc(C)c(C)c2C#N)cc1C
    3%	-9%
CCCN(C(=O)CCNC(=O)Cn1cnc2ccccc2c1=O)c1cccc(Cl)c1
    10%	-32%
CCCCN(C(=O)COC(=O)COc1c(C)cc(C)cc1C)c1c(N)n(CCC)c(=O)[nH]c1=O
    -2%	-1%
CCCC(C)NC(=O)COc1ccc(S(=O)(=O)c2ccc(OCC(=O)NC(C)CCC)cc2)cc1 (stereo not given)
    3%	?
O=C(Nc1ccccc1Cl)C1C2CCC3C(CCC21)C3(Cl)Cl (stereo not given)
    3%	?
Cc1n[nH]c(C)c1Sc1ccccc1N
    -5%	-6%
CCOC(=O)CCNCC1COc2ccccc2O1 (stereo not given)
    3%	-21%
CN(C)/C=C1/Nc2ccccc2C1=O
    5%	?
COCCCN(C(=S)NC(=O)c1ccc(C(C)(C)C)cc1)c1c(N)n(Cc2ccccc2)c(=O)[nH]c1=O
    -2%	-28%
CN(C)S(=O)(=O)c1ccc(C(=O)OCc2ccc(C#N)cc2)cc1
    -3%	0%
COc1ccc(C2(c3ccc(OC)cc3)NC(=O)N(CC(=O)NC3(C#N)CCCC3)C2=O)cc1
    1%	-3%
Cn1c(NC(=O)C2CCCC2)cc(=O)n(C)c1=O
    4%	-19%
COC(=O)c1cn(NC(=O)c2cccnc2)c(=O)c2ccccc12
    5%	1%
COc1ccc(NC(=O)CN(C)C(=O)c2cccc(NS(=O)(=O)c3ccc(Br)cc3)c2)cc1
    0%	?
Cc1cccc(CC(=O)Nc2sc(C(C)C)cc2C(=O)N2CCOCC2)c1
    4%	-13%
NC(=O)CSc1nnc(C2CC2)n1Cc1ccccc1
    0%	-2%
CSC1=N/C(=C\c2ccccc2C)C(=O)S1
    nt	9%
CCN1CCN(C(=S)NC(CC(=O)c2ccccc2)c2ccccc2)CC1 (stereo not given)
    0%	-24%
O=c1c2ccccc2oc2ccc(-c3ccc4cc[nH]c4c3)cc12
    1%	?
CCCCOC(=O)CSc1nc(N)c(C#N)c(-c2ccc(OCC)cc2)c1C#N
    -2%	-10%
O=C(CCC(=O)Nc1nnc(C2CCCCC2)s1)Nc1ccccc1
    2%	20%
Cc1ccc(O)c(NC(=O)c2ccc3c(c2)C(=O)N(CC(C)C)C3=O)c1
    nt	-17%
Cc1ccc(NC(=O)COC(=O)C2CCN(c3ccc(C(F)(F)F)cn3)CC2)cc1
    -5%	2%
c1ccc(-c2cc(-c3nc(-c4cccnc4)no3)c3ccccc3n2)cc1
    3%	nt
Cc1nc2ccccc2c(=O)n1NC(=O)c1ccc([N+](=O)[O-])cc1
    2%	-11%
Cc1ccc(N2CCCCn3c2nc2c3c(=O)n(CC(=O)O)c(=O)n2C)cc1
    6%	-23%
CN(C(=O)COC(=O)CSc1ccc([N+](=O)[O-])cc1)C1CCS(=O)(=O)C1 (stereo not given)
    -3%[0.505 µM]	-3%
Cc1ccc(NS(=O)(=O)c2c(C)[nH]c(C)c2C(=O)N2CCCCC2)c(Cl)c1
    4%	-19%
CCCCn1cnc2c(c1=O)c1nc3ccccc3nc1n2Cc1ccc2c(c1)OCO2
    -3%	-14%
O=C1CCCC2=C1C(c1ccc(Cl)cc1)N1C(=O)CCSC1=N2 (stereo not given)
    5%	?
O=C(CN1CCOCC1)Nc1cccc(S(=O)(=O)N2CCCCCC2)c1
    -1%	-15%
O=[N+]([O-])c1cccnc1N1CCC(c2cc(-c3cccc(C(F)(F)F)c3)n[nH]2)CC1
    10%	?
C=CCNC(=O)COc1coc(CN2CCN(C(=O)c3ccco3)CC2)cc1=O
    -2%	-6%
CC(=O)Nc1c(C(=O)N2CCCCCC2)cnn1-c1ccccc1Cl
    6%	-4%
O=C(COc1ccc(F)cc1)Nc1nnc(C2CCCCC2)s1
    1%	-9%
CCN(CC)CCC/C(=N\O)C(O)(c1ccccc1)c1ccccc1
    0%	?
CC(=O)Nc1ccc(C(=O)N/N=C/C2CC3C=CC2C3)cc1 (stereo not given)
    3%	-16%
O=C(Nc1c2c(nn1-c1ccccc1)CS(=O)(=O)C2)C1CCCC1
    -3%	-18%
O=c1cc(-c2ccc(O)c(-c3c(O)cc(O)c4c(=O)cc(-c5ccc(O)cc5)oc34)c2)oc2cc(O)cc(O)c12
    7%	-5%
Cc1onc(-c2ccccc2)c1C(=O)N/N=C/c1cn(C)c2ccccc12
    8%	?
COc1ccc(CCNC(=O)Cn2ccc3c(OC)cccc3c2=O)cc1OC
    1%	-20%
CC1CC(=O)NN=C1c1ccc(NCCO)c([N+](=O)[O-])c1 (stereo not given)
    1%	2%
C=CCNC(=O)c1ccccc1NC(=O)COc1ccc(OC)cc1
    nt	11%
Cc1ccc(-n2cccc2/C=N/n2cnnc2)cc1Cl
    3%	-24%
O=S(=O)(Nc1cccc(-n2cnnn2)c1)c1cc(Cl)ccc1Cl
    7%	-20%
Cc1nnc(C)n1/N=C/C=C/c1ccccc1
    1%	5%
NC[C@H](Cc1ccccc1)NCCc1cc(C(F)(F)F)cc(C(F)(F)F)c1
    -4%	?
Cc1ccc(S(=O)(=O)NNC(=O)c2sccc2-n2cccc2)cc1
    -7%	-19%
COc1ccc(C)cc1NC(=O)CCNS(=O)(=O)c1cccc(C(F)(F)F)c1
    5%	-11%
O=C(CC12CC3CC(CC(C3)C1)C2)NCCN1CCOCC1
    2%	6%
CC(=O)Nc1ccc(NC(=O)CN2C(=O)COc3ccc(S(=O)(=O)N4CCCCC4)cc32)cc1
    3%	9%
Cn1ncc(Br)c1C(=O)NCc1cccs1
    3%	?
Cc1ccc(N(CC(=O)NC2CCCC2)C(=O)c2ccc(C)s2)cc1
    7%	?
Cc1ccc(OCC(=O)NCc2ccco2)c([N+](=O)[O-])n1
    -3%	2%
CCOC(=O)c1ccc(NS(C)(=O)=O)cc1
    3%	-5%
CCOC(=O)C1(Cc2cccc(F)c2)CCN(C(=O)c2cnc(C)cn2)CC1
    0%	-12%
CCc1ccc(CCC(=O)Nc2ccccc2C(=O)O)o1
    0%	-27%
CCCCCc1nnc(NC(=O)OCCC)s1
    3%	-15%
CC(=O)Nc1ccc(CN2CCN(CC=C(C)C)C(CCO)C2)cc1 (stereo not given)
    -3%	1%
CCCOC(=O)Nc1ccccc1C(N)=O
    -2%	-27%

An excerpt from above in order of molecular weight, falling:
Value order – TDP1 block	TDP1 cell noCPT
CCCCN(C(=O)COC(=O)COc1c(C)cc(C)cc1C)c1c(N)n(CCC)c(=O)[nH]c1=O
    -2%	-1%
O=C1CCCC2=C1C(c1ccc(Cl)cc1)N1C(=O)CCSC1=N2 (stereo not given)
    5%	?
CN(C)S(=O)(=O)c1ccc(C(=O)OCc2ccc(C#N)cc2)cc1
    -3%	0%
CC1CC(=O)NN=C1c1ccc(NCCO)c([N+](=O)[O-])c1 (stereo not given)
    1%	2%
CCc1ccc(CCC(=O)Nc2ccccc2C(=O)O)o1
    0%	-27%
CSC1=N/C(=C\c2ccccc2C)C(=O)S1
    nt	9%
Cc1n[nH]c(C)c1Sc1ccccc1N
    -5%	-6%

(continued)
Value order – TDP1 block	TDP1 cell noCPT
Cc1cccc(-n2c(O)cnc2Nc2nc(C)cc(C)n2)c1
    10%	?
COc1ccc(Cl)cc1C(=O)NCc1ccc2c(c1)OCO2
    3%	?
COCCNC(=O)CSc1nnc(CCCN2C(=O)c3cccc4cccc(c34)C2=O)n1-c1ccccc1
    5%	?
O=C(c1ccc(Cl)cc1)n1nc(-c2ccccc2)nc1NCc1ccco1
    -1%	-5%
CCC(=O)N1c2ccc(S(=O)(=O)CCC(=O)NCc3ccccc3OC)cc2CC1C (stereo not given)
    2%	-18%
Cc1cc(C)cc(NC(=S)N2CCC(N(C)CC3CCCO3)CC2)c1 (stereo not given)
    -1%	0%
Cc1nn(CC(=O)Nc2ccc(N3CCOCC3)cc2)c(C)c1Br
    3%[56.1 µM]	-13%
COCC(C)NC(=O)CSc1nnc(-c2cccc(S(=O)(=O)N3CCCCC3)c2)o1 (stereo not given)
    5%	23%
CCOc1ccccc1NC(=O)Cn1nc(-c2ccco2)ccc1=O
    nt	-20%
CCOc1ccc(NC(=O)C2CC(=O)N=C(N)S2)cc1 (stereo not given)
    -3%	-4%
CN(C(=O)C1CCC1C(=O)O)c1nc(-c2ccc(Cl)s2)cs1 (stereo not given)
    3%	-14%
CCCc1cc(=O)oc2cc(C)cc(OC(C)C(=O)NCC3CCC(C(=O)O)CC3)c12 (stereo not given)
    nt	-14%
CCc1c(C(C)=O)oc2ccc3c(C)cc(=O)oc3c12
    2%	?
CCOc1ccc(C(=O)NCC(=O)N2CCc3ccccc3C2)cc1OCC
    -1%	0%
COc1ccc(OCC(=O)OCC(=O)N2C(C)CCCC2C)cc1 (stereo not given)
    2%	20%
CN(C)c1ccc(C(=O)NN2C(=O)c3ccccc3C2=O)cc1
    0%	0%
CCOC(=O)Cc1nc(-c2cccc(C(F)(F)F)c2)no1
    2%	-3%
Cc1c(NC(=O)CN2CCN(c3ccccc3)CC2)c(=O)n(-c2ccccc2)n1C
    4%	2%
CN1CCN(CCCNC(=O)c2ccc(/C=C3\Sc4ccccc4N(Cc4ccccc4F)C3=O)cc2)CC1
    5%	?
CC(=O)Nc1ccc(S(=O)(=O)Nc2nc3ccccc3nc2Nc2ccc(S(N)(=O)=O)cc2)cc1
    -4%	-15%
O=C(CSc1nnc(-c2ccccc2O)o1)N1CCCCC1
    0%[0.0935 µM]	-18%
CCOC(=O)c1sc(NC(=O)CSc2nnc(C(C)C)n2C)nc1C
    8%	-14%
CC(Oc1cccc(Cl)c1)C(=O)Nc1ccncc1 (stereo not given)
    5%	?
Cc1sc2ncn(CC(=O)NCC3COc4ccccc4O3)c(=O)c2c1S(=O)(=O)N1CCOCC1 (stereo not given)
    0%	-15%
CCn1c(=O)cc(SCC(=O)Nc2cccnc2)c2ccccc21
    6%	1%
CCCCCCOC(=O)NCC(O)c1ccccc1 (stereo not given)
    -4%	-21%
COc1ccc(C2C(C(=O)N3CCN(c4ccc(OC)cc4)CC3)c3ccccc3C(=O)N2C)cc1 (stereo not given)
    5%	?
COc1ccc(NC(=O)CSCC(=O)Nc2cccc(S(=O)(=O)N3CCCCCC3)c2)cc1
    3%	-8%
O=C(CCc1ccc(O)cc1)c1c(O)cc(O)cc1O[C@H]1OC(CO)C(O)C(O)C1O (stereo not given in full)
    10%[56.1 µM]	-5%
CCOC(=O)C1CCN(C(=O)CCCN2C(=O)c3ccccc3C2=O)CC1
    5%	-19%
COc1ccc2sc(-c3ccc(S(C)(=O)=O)cc3)c(C(=O)NCCCN3CCCC3=O)c2c1
    1%	?
CCC1=C(OC(=O)N(CC)CC)N2C(=O)OC(=NCc3ccccc3)[C@]2(C)[C@H]2C1=CC[C@H]1C(=O)NC(=O)[C@H]12
    10%&2%	-18%
CCOC(=O)C1=C(c2ccccc2)NC(=O)NC1c1cc(Br)c(O)c(OC)c1 (stereo not given)
    0%	-2%
Cc1cc(C)cc(NC(=O)CCN2C(=O)c3ccccc3S2(=O)=O)c1
    nt	0%
CC(Cl)C(=O)c1c(N)n(C)c(=O)n(C)c1=O (stereo not given)
    0%	-20%
O=C(c1cccc(C(=O)N2CCN(Cc3ccccc3)CC2)c1)N1CCN(Cc2ccccc2)CC1
    3%	?
Cc1ccc(C2(C)NC(=O)N(CC(=O)NCc3cccs3)C2=O)cc1 (stereo not given)
    -3%	-27%
NC(N)=NS(=O)(=O)c1ccc(NC(=S)NC(=O)/C=C/c2cccs2)cc1
    1%	-16%
c1ccc(-c2nnc(CN3CCN(c4ccccc4)CC3)o2)cc1
    5%&0%	-8%&-4%
CCN(CC)c1ccc(N)cc1S(=O)(=O)Nc1ccc(OC)cc1
    10%	-23%
C=CCc1cc2c(oc(=O)c3ccccc32)c(C)c1O
    -2%	-24%
Cc1cccc(NS(=O)(=O)c2nnc(NC(=O)CC(C)C)s2)c1
    nt	5%
CCCCNc1c(N2CCN(C(=O)OCC)CC2)c(=O)c1=O
    7%	-12%
COc1ccc(N(CC(=O)NC2CC3CCC2C3)S(=O)(=O)c2ccc(C)cc2)cc1OC (stereo not given)
    nt	-4%
COCCn1c(SCc2nc3ccccc3c(=O)[nH]2)nnc1-c1ccncc1
    0%	-13%
CS(=O)(=O)c1ccc2nc(NC(=O)c3ccc(=O)[nH]c3)sc2c1
    -11%	-27%
O=C(c1cncc(Br)c1)N1CCN(S(=O)(=O)c2ccccc2)CC1
    0%	4%
O=C(O)c1ccccc1NS(=O)(=O)c1ccc2c(c1)OCCO2
    1%	1%
CCN1CCN(Cc2ccc(NC(=O)Nc3ccc(SC)cc3)cc2)CC1
    7%	?
COc1cc(/C=N\n2cnnc2)ccc1OCC(=O)Nc1ccc(C)cc1
    5%	-17%

Only part of the results is shown; most or all hits stand in other tables.
